Screening data as filed in PubChem BioAssay.
CBX7 inh: CBX7 inhibition, primary AlphaScreen | 66,000 compounds, 1.1% hits | normalised signal (fraction of DMSO) (concentration not given with the values) | O95931 | AlphaScreen His6-CBX7 / biotin-H3K27me3 peptide binding; active compounds read low; in the data active = normalised signal below about 0.5;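 note: 100 nL library stock added to about 20 µL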
Target sequence (O95931 whole entry, looked up): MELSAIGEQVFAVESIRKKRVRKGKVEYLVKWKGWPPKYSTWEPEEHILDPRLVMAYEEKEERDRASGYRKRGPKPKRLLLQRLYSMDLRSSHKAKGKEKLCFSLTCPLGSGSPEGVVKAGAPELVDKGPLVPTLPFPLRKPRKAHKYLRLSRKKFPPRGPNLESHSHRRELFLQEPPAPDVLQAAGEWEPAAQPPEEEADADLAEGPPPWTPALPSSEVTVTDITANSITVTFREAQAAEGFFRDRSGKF
CBX7 inh z-score: further read-out of CBX7 inh, marked with its call; z-score; measured here: z-score of CBX7 signal; some inactives read as strong as hits; reference of the scale not given here;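 same signal on another scale; lower means less binding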
* hit, by the source's call; & = joins results of further samples.

SMILES | CBX7 inh | CBX7 inh z-score
COc1cc(OC)cc(C(=O)Nc2ccccc2-c2nc3ccccc3s2)c1 | 1 | -0.0063
CCOc1ccc2nc(NC(=O)CN3C(=O)CC(C)(C)Sc4ccccc43)sc2c1 | 0.97 | -1.1
Cc1cccc(N2CCN(C(=O)C3CCN(S(=O)(=O)c4cccnc4)CC3)CC2)c1C | 0.95 | -1.3
COc1ccc(-c2nc(CSCC(=O)NCC3CCCO3)c(C)o2)cc1 (stereo not drawn) | 1 | -0.041
Cc1nc2c(-c3ccc(F)cc3)c(C)nn2c(C)c1CCC(=O)NCCCc1ccccc1 | 1 | 0.73
O=C(Nc1nc(-c2ccc(F)c(F)c2)cs1)c1cccs1 | 1 | -0.072
COc1cc2c(C(=O)N3CCCCCC3)cn(CC(C)C)c(=O)c2cc1OC | 1.2 | 2.1
Cc1cc(C(=O)Nc2ccc(Br)cc2F)n(-c2ccccc2)n1 | 1.1 | 2.7
Cc1ccc(-n2c3c(cc(C(=O)Nc4ccccc4)c2=O)C(=O)CC(C)(C)C3)cc1 | 1.2 | 1.9
Cc1cccc(C)c1N(C)S(=O)(=O)c1ccc2[nH]cc(C(=O)NCCC3=CCCCC3)c(=O)c2c1 | 0.92 | -0.74
Nc1ccc(-c2nc3ccc(C(=O)O)cc3[nH]2)cc1 | 0.97 | -0.23
CC1CCN(S(=O)(=O)c2ccc3c(c2)N(CC(=O)NCCN2CCOCC2)C(=O)CO3)CC1 | 0.92 | -1.3
CCOc1cccc(C(=O)Nc2cc(-c3nc4ncccc4o3)ccc2C)c1 | 0.88&1 | -2&0.15
CC1(C)CC(=O)c2cc(C(=O)NCCCO)c(=O)n(-c3ccccc3)c2C1 | 0.95 | -0.2
CCOC(=O)c1cccc(NC(=O)COc2ccc(OC)cc2)c1 | 1.1 | 2.6
CCn1c(CCCNC(=O)c2cccs2)nc2ccccc21 | 0.98 | -0.58
Cc1ccc(S(=O)(=O)Nc2c(C)ccc3nsnc23)cc1 | 1.2 | 3.6
FC(F)(F)c1cc(-c2ccc(Cl)cc2)nc(NCc2ccc(Cl)cc2)n1 | 1.6 | 25
COc1ccc(C2C(C(=O)Nc3ccc(C)cn3)=C(C)NC3=C2C(=O)CC(C)(C)C3)c(OC)c1 (stereo not drawn) | 1 | -0.01
CC(=O)Nc1ccc(Br)cc1C(NCC(=O)O)c1ccccc1 (stereo not drawn) | 1 | 0.69
CCOc1cc2c(cc1OCC)C(c1ccc(Br)cc1)NCC2 (stereo not drawn) | 0.94 | -0.89
COc1ccc2c(c1)CCc1c(C(=O)Nc3cc(Cl)ccc3OC)noc1-2 | 1 | 0.81
O=C(NCCCc1ccccc1)c1ccc2nc(N3CCOCC3)sc2c1 | 1 | -0.013
O=C(Cn1nc(-c2ccccc2)ccc1=O)NCc1cccnc1 | 1 | 0.33
COc1ccc(-c2noc(COc3ccc(Br)c(C)c3)n2)cc1 | 1.1 | 2.8
Cc1ccccc1-c1nc(CN2CCC(C(=O)NCc3ccc(F)cc3)CC2)c(C)o1 | 1 | 1.1
Cc1ccc(CSc2nc3ccncc3n2Cc2nc(-c3cccc(Cl)c3)oc2C)cc1 | 0.96 | -1.1
Cc1ccc(CNC(=O)c2cnn3c(C)c(Cc4c(C)cc(C)cc4C)c(C)nc23)cc1 | 0.96 | -0.86
CCOc1ccc2c(c1)c(=O)c(S(=O)(=O)c1ccc(F)cc1)cn2CC(=O)Nc1ccccc1C | 0.89 | -1.8
Cc1ccc(OCc2nc(-c3ccc(Cl)cc3)no2)c(C)c1 | 1.2 | 5
CCOc1ccc(CCNC(=O)c2cc3c(s2)-c2c(C)cccc2OC3)cc1 | 1 | 0.48
COc1cccc(NC(=O)CSc2nccn2-c2cccc(C)c2C)c1 | 0.83 | -0.17
COc1ccc2c(c1)CCc1sc(NC(=O)c3ccc(Cl)cc3)nc1-2 | 1.2 | 2.6
COc1ccc2nc(NC(=O)CN3CCCC3)sc2c1 | 0.81 | -0.77
CC(C)(C)C1CCc2oc3ccc(NS(=O)(=O)c4ccc(F)cc4)cc3c2C1 (stereo not drawn) | 0.95 | -0.6
CC(NC(=O)C(=O)N1CCOCC1)C(c1cccs1)N1CCN(c2ccc(F)cc2)CC1 (stereo not drawn) | 0.98 | -0.61
COCCN1Cc2cccc(C(=O)Nc3ccc(C)cc3Cl)c2C1=O | 0.98 | -0.3
COc1ccc(-c2nc(SCC(=O)NCC3CCCO3)c(-c3ccccc3)[nH]2)cc1 (stereo not drawn) | 0.94 | -1.5
COc1ccc(N2C(=O)CC(NCCCN3CCN(C)CC3)C2=O)cc1 (stereo not drawn) | 1 | 0.011
Cc1ccccc1-c1nc(CN2CCCC(C(=O)NC3CCCC(C)C3C)C2)c(C)o1 (stereo not drawn) | 0.98 | -0.54
Fc1cccc(-c2nc3ccc(F)cc3nc2-c2cccc(F)c2)c1 | 1.3 | 2
O=C1CC(c2ccccc2)C(C(=O)Nc2cccc(Cl)c2)N1 (stereo not drawn) | 0.84 | -1.9
CC(C)C12CN3CC(C(C)C)(CN(C1)C3c1c(O)ccc3ccccc13)C2=O (stereo not drawn) | 0.95 | -0.64
CC1CCN(S(=O)(=O)c2ccc3c(c2)N(CC(=O)N2CCN(C)CC2)C(=O)CO3)CC1 | 1.1 | 2.1
CC(C)OCCCNC(=O)c1cc(=O)[nH]c2ccc(S(=O)(=O)N3CCCCCC3)cc12 | 0.95 | -0.71
CC1CCN(S(=O)(=O)c2ccc3ncn(CC(=O)NCCCN4CCOCC4)c(=O)c3c2)CC1 | 1.1 | 2.3
Cc1ccc(S(=O)(=O)Nc2cccc3c(C)cc(-n4nc(C)cc4C)nc23)cc1 | 1.1 | 1.4
O=C(Cn1cnc2c(nnn2Cc2ccc(F)cc2)c1=O)NCc1ccc(F)cc1 | 0.97 | -0.53
CNC(=O)c1ccc2c(c1)N(Cc1ccccc1F)C(=O)c1ccccc1S2 | 0.96 | -1.7
CCOc1cc2c(cc1OCC)C(c1cccc(C)n1)NCC2 (stereo not drawn) | 0.97 | -0.45
O=S1(=O)CC(NCc2ccccc2)C(Nc2ccc(Cl)cc2)C1 (stereo not drawn) | 1.1 | 0.91
COc1ccc(C2CC(=O)NC3=C2C(=O)CC(C)(C)C3)cc1OC (stereo not drawn) | 1.1 | 1.1
O=c1c2ccccc2c(-c2ccccc2)nn1-c1ccccn1 | 1.2 | 1.9
O=[N+]([O-])c1cccc(-n2nc(-c3ccc(Cl)cc3)cc2-c2ccc(Cl)cc2)c1 | 0.62 | -5.8
CNC(=O)c1ccc2c(c1)N(Cc1ccccc1Cl)C(=O)c1ccccc1S2 | 0.88 | -3
Cc1ccc(NC(=O)C2(N(C(=O)c3ccc(-n4cnnn4)cc3)c3ccc(C)cc3)CCCCC2)cc1 | 0.82 | -0.63
Cc1cccc(NC(=O)CN(c2ccc(C(C)C)cc2)S(=O)(=O)c2c(C)nn(C)c2C)c1C | 0.87 | -1.9
COc1ccc(Cn2c(CCC(=O)NCc3ccc(Cl)cc3)nc3cccnc32)cc1 | 1.1 | 3.1
Cc1ccc2nc(NC(=O)C3CCN(S(=O)(=O)c4cnc[nH]4)CC3)sc2c1 | 0.94 | -0.72
COc1ccc(OC)c2[nH]c(=O)c(CCNC(=O)c3ccc(C)c(C)c3)cc12 | 0.82 | -3

(more compounds)
SMILES | CBX7 inh | CBX7 inh z-score
COc1cc(-c2nnc(SCCCCOc3ccccc3)o2)cc(OC)c1OC | 1 | 0.35
O=C(NCc1ccccc1F)C12CC3CC(C1)CC(n1cncn1)(C3)C2 | 0.96 | -0.71
Cc1nn(Cc2ccccc2Cl)c(C)c1NC(=O)c1cc(-c2ccc(O)cc2)on1 | 1 | 0.14
COc1ccccc1-n1cnc2cc(C(=O)NCc3ccc(F)cc3)ccc21 | 0.97 | -0.42
CCC(C)NC(=O)CCc1nc2ccccc2n(Cc2ccccc2C)c1=O (stereo not drawn) | 1 | 0.24
CNC(=O)CCn1nc(-c2ccc(C)cc2)c2ccccc2c1=O | 1 | 1.1
COC(=O)c1c(NC(=O)c2ccc(S(=O)(=O)N(C)C)cc2)sc2c1CCN(C(C)C)C2 | 1 | 0.81
CC(C)(C)c1ccc(OCCCC(=O)Nc2nc3ccccc3s2)cc1 | 1.2 | 1.5
CCC(C)NC(=O)C1(C)CCC(=O)N1Cc1cccs1 (stereo not drawn) | 1.1 | 1.7
O=C(Cn1c(SCc2ccc(F)cc2)nc2ccncc21)Nc1ccc(F)c(Cl)c1 | 1 | 0.97
COc1ccc2c(c1)-c1nc(NC(=O)c3ccc(F)cc3)sc1CC2 | 1.1 | 1.4
COc1ccc(OC)c(NS(=O)(=O)c2ccc3c(c2)n(C)c(=O)c(=O)n3C)c1 | 0.97 | -0.21
Cc1ccc2cc(CCNC(=O)c3cccc(Br)c3)c(=O)[nH]c2c1C | 1 | 0.12
Clc1ccc2nc(-c3ccccn3)c(Nc3ccc4c(c3)OCCO4)n2c1 | 0.15* | -6.8*
CCOC(=O)C1CCN(c2c(Nc3ccc(OCC)cc3)c(=O)c2=O)CC1 | 0.99 | -0.41
Cc1onc(-c2ccccc2Cl)c1C(=O)N1CCC(C(N)=O)CC1 | 0.88 | -1.3
COc1ccc(-c2noc(N(C)CC(=O)Nc3ccc(OC)c(Cl)c3)n2)cc1 | 1 | 0.66
O=C(CN1C(=O)CSc2ccc(S(=O)(=O)N3CCOCC3)cc21)NCc1ccccc1 | 0.85 | -1.8
CCOc1ccc(NC(=O)Nc2cc3sccc3n2CC)cc1 | 1 | 0.5
CCOc1ccc(Nc2ncnc3c2c(-c2ccccc2)cn3-c2ccc(C)cc2)cc1 | 0.93 | -2.1
O=C(CC1Nc2ccccc2NC1=O)NCCCN1CCCCCC1 (stereo not drawn) | 1.2 | 3.3
CCc1ccccc1Nc1cc(C(=O)NC2CCCC2)c2ccccc2n1 | 0.88 | -1.8
COc1ccccc1CNc1ncnc2c1cnn2-c1ccc(Cl)cc1 | 0.76 | -0.84
COc1ccc(-n2c(/C=C/c3cccc4ccccc34)nc3ccccc3c2=O)cc1OC | 1.1 | 3.7
Cc1csc2ncc(C(=O)NCc3ccccc3)c(=O)n12 | 1.1 | 0.8
CCOC(=O)N1CCc2c(sc(NCc3cccc(F)c3)c2C(=O)Nc2ccccc2OCC)C1 | 0.92 | -4.3
CCN(CC)CCn1c(=N)n(CC(O)c2ccc(Cl)c(Cl)c2)c2ccccc21 (stereo not drawn) | 1.1 | 0.49
Cc1nc2ccc(S(=O)(=O)NC(C(=O)NCc3ccc4c(c3)OCO4)C(C)C)cc2s1 (stereo not drawn) | 0.97 | -0.51
CCCCN(C)CCCNC(=O)c1ccc2c(c1)N(CC)C(=O)c1ccccc1S2=O (stereo not drawn) | 1 | 0.96
COc1ccc(C(=O)Nc2nc3ccccc3n2CCOc2cccc(C)c2)cc1 | 0.88 | -0.76
Cc1ccc(F)cc1NC(=O)c1sc2ncn(Cc3ccccc3F)c(=O)c2c1C | 1 | 0.22
Fc1ccc2nc(-c3ccc(Cl)cc3)c(-c3ccc(Cl)cc3)nc2c1 | 1.4 | 2.6
CCOC(=O)C1CCCN(c2nc(Cc3ccccc3)nc3sc4c(c23)CCCC4)C1 (stereo not drawn) | 1 | 0.12
Cc1ccc(N2CC(C(=O)Nc3ccc(N(C)C)cc3)CC2=O)cc1Cl (stereo not drawn) | 0.91 | -1
Cc1cccc(CC2CC(=O)N(c3ccccc3)C2=O)c1 (stereo not drawn) | 1.2 | 1.5
CC1c2nc3ccccc3n2C(CC(=O)NCCCc2ccccc2)C(=O)N1Cc1ccccc1 (stereo not drawn) | 0.9 | -1.6
COc1ccc(CNC(=O)c2ccc3c(c2)N(Cc2ccccc2)C(=O)c2ccccc2S3=O)cc1 (stereo not drawn) | 0.93 | -1.9
COc1ccc(CC(=O)N2CC(=O)Nc3ccc(Cl)cc3C2c2ccccc2)cc1 (stereo not drawn) | 1.1 | 1.9
Cc1ccc2nc(N3CCCC3)nc(-c3ccccc3)c2c1 | 1.4 | 1.5
Cc1ccc(CNC(=O)c2cc3c(s2)-c2ccccc2OC3)cc1 | 1 | 0.33
Cc1nc2ccc(S(=O)(=O)NC(C(=O)NCc3ccc(Cl)cc3)C(C)C)cc2s1 (stereo not drawn) | 0.99 | -0.19

Among those listed so far, eleven contain a thiophene ring, fused or not.
SMILES | CBX7 inh | CBX7 inh z-score
O=C(Nc1nc(-c2ccc(F)c(F)c2)cs1)c1cccs1 | 1 | -0.072
CCn1c(CCCNC(=O)c2cccs2)nc2ccccc21 | 0.98 | -0.58
CCOc1ccc(CCNC(=O)c2cc3c(s2)-c2c(C)cccc2OC3)cc1 | 1 | 0.48
CC(NC(=O)C(=O)N1CCOCC1)C(c1cccs1)N1CCN(c2ccc(F)cc2)CC1 (stereo not drawn) | 0.98 | -0.61
COC(=O)c1c(NC(=O)c2ccc(S(=O)(=O)N(C)C)cc2)sc2c1CCN(C(C)C)C2 | 1 | 0.81
CCC(C)NC(=O)C1(C)CCC(=O)N1Cc1cccs1 (stereo not drawn) | 1.1 | 1.7
CCOc1ccc(NC(=O)Nc2cc3sccc3n2CC)cc1 | 1 | 0.5
CCOC(=O)N1CCc2c(sc(NCc3cccc(F)c3)c2C(=O)Nc2ccccc2OCC)C1 | 0.92 | -4.3
Cc1ccc(F)cc1NC(=O)c1sc2ncn(Cc3ccccc3F)c(=O)c2c1C | 1 | 0.22
CCOC(=O)C1CCCN(c2nc(Cc3ccccc3)nc3sc4c(c23)CCCC4)C1 (stereo not drawn) | 1 | 0.12
Cc1ccc(CNC(=O)c2cc3c(s2)-c2ccccc2OC3)cc1 | 1 | 0.33

The list is partial; count on the stated rates, not on these rows.
